# NPR1 antag – Natriuretic polypeptide receptor (hNpr1) antagonism - Primary qHTS. Atrial natriuretic peptide receptor 1 (Homo sapiens), P16066. 76,000 tested, 1.6% active. HEK293 hNpr1 GloSensor cGMP, ANP-stimulated luminescence. Potency, µM (doses to about 46.3 µM), inactives show top-dose activity change, negative = inhibition, usual class: inhibitors. AID 1347048, 2019; active = well fitted inhibition curve with a large enough effect; inconclusive = small, poorly fitted or top-dose-only effect; inactive = no such curve, though single readings can be large or run the other way;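 further: nearly all actives have a fitted effect of over 60% in size; nearly all hits also lower the signal before the agonist is added; a reference antagonist and vehicle were the controls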
# Target sequence (P16066 whole entry, looked up): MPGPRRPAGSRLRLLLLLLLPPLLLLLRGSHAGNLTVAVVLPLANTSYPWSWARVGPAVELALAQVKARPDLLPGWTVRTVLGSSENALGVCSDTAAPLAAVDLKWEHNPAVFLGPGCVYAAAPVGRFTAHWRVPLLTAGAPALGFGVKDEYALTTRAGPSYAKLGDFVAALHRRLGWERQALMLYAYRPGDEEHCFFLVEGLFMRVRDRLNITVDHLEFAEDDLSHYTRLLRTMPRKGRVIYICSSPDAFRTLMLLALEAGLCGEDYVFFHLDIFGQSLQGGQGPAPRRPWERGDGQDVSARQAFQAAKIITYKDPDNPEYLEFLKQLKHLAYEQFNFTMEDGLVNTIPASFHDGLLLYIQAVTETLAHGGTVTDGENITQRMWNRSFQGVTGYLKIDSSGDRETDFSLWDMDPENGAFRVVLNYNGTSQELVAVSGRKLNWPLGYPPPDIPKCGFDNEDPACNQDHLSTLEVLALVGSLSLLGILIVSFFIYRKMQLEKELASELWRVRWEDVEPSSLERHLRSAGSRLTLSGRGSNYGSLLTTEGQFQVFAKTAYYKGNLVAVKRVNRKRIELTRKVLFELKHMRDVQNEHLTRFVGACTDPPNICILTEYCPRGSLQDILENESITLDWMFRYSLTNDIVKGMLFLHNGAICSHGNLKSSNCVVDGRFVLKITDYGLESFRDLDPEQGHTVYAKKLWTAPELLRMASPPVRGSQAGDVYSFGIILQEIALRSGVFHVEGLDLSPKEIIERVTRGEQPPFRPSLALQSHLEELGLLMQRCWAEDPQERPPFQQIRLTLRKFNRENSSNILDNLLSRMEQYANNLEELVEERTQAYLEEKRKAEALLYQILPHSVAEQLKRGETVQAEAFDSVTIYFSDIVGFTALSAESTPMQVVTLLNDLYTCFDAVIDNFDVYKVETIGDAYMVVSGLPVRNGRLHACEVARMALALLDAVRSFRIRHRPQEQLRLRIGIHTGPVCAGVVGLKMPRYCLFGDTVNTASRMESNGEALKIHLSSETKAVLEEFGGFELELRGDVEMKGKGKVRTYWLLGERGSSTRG
#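 HEK293 cells stably expressing human Npr1 and cGMP GloSensor pGS-40F, loaded 2 h with 2% GloSensor reagent, given compound 30 min at room temperature. Luminescence read before and 20 min after 0.1 nM hNppA.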
# Active calls of the source: *; ? = inconclusive; & = joins results of further samples; [ ] = dose if it differs, or a comment. On the % scale 0 is the no-effect control and ±100 the full control effect; potency means the concentration at half of the fitted maximal effect.
NPR1 antag | SMILES
-1.7% | CCn1c(C2CCN(C(=O)CCc3ccccc3OC)CC2)nn(C)c1=O
-17.1% | COCCN1CCCCCC(O)c2cc(C(=O)N3CCN(c4ccc(F)cc4)CC3)ccc21 (stereo not drawn)
-4.2% | CCC(CC)NC(=O)C1CCc2nc(N3CCN(C(=O)C(C)C)CC3)sc2C1 (stereo not drawn)
-17.8% | C[C@]1(CO)[C@H]2Cc3sc(NC(=O)c4ccnc(Cl)c4)nc3[C@@H](CC(=O)O)[C@]2(C)CC[C@H]1O
-1.5% | O=C(CCCc1ccccc1)N1C[C@@H](CO)[C@H](c2ccccn2)C1
0.8%[70.6 µM] | CC1(C)[C@H](Cc2cc(CC3CCCCC3)on2)C[C@@H]1NS(C)(=O)=O
-16.9%[70.6 µM] | Cc1nn(-c2ccccc2[N+](=O)[O-])c(C)c1[C@@H]1C=C[C@@H](NCc2ccco2)C1
2.3% | CCCn1cc(CNC(=O)c2cn(CCN)nn2)cn1
0.8% | Cc1cc(C)c(CNC(=O)c2cc(-c3ccc(CN(C)C)cc3)cc3ncn(C)c23)c(=O)[nH]1
-0.8%[70.6 µM] | N#Cc1cccc(NC(=S)N[C@H]2CO[C@H]3[C@@H]2OC[C@@H]3n2cc(-c3ccccn3)nn2)c1

# The last 2 records of the section above are carried over, then new ones follow:
NPR1 antag | SMILES
0.8% | Cc1cc(C)c(CNC(=O)c2cc(-c3ccc(CN(C)C)cc3)cc3ncn(C)c23)c(=O)[nH]1
-0.8%[70.6 µM] | N#Cc1cccc(NC(=S)N[C@H]2CO[C@H]3[C@@H]2OC[C@@H]3n2cc(-c3ccccn3)nn2)c1
2.0% | COc1ccc(C(=O)NC(C)C(=O)N2CCN(c3ccccn3)CC2)cc1F (stereo not drawn)
1.6%[70.6 µM] | CC1=C[C@@H](CN2CCC(CO)CC2)[C@H](C(C)C)C[C@H]1Cc1nnc(-c2cccnc2)o1
-1.2% | Cc1nc2c(c(=O)[nH]1)CCN(CC1(O)CNCCOC1)CC2 (stereo not drawn)
14.1µM* | COc1ccc(C)cc1C(=O)N1CCc2onc(-c3ccccc3F)c2C1
3.0% | O=C(CC[C@H]1NC(=O)c2ccccc2NC1=O)NCCn1cnc2ccccc21
1.6% | Cn1c(CN2CCOCC2)nnc1C1CCCN(C(=O)CNC(N)=O)C1 (stereo not drawn)
-1.7% | COCCN1CCCCCC(O)c2cc(C(=O)N(C)CCCc3c(C)nn(C)c3C)ccc21 (stereo not drawn)
? | COc1ccc(-n2nc(C3CCN(Cc4ccc(OC(F)(F)F)cc4)CC3)[nH]c2=O)cc1
-0.6% | O=C(Nc1cccc(F)c1)N1CCC(n2cnnc2C2CC2)C1 (stereo not drawn)
-12.2% | Cc1ccc(C2Cn3cnc(C(=O)N4CCC(C(=O)NCc5ccc(F)cc5)CC4)c3CO2)cc1 (stereo not drawn)
-3.4%[70.6 µM] | C[S+](=O)([O-])c1ccc(-c2cc3c(cn2)CN(Cc2ccccc2)CCN3)cc1
2.0% | COc1ccccc1N1CCN(C(=O)C2N(C(C)C)C(=O)C23CCCC3)CC1 (stereo not drawn)
0.9%[70.6 µM] | Cc1noc(C)c1S(=O)(=O)N[C@@H]1C[C@H](Cn2cc(C3CC3)nn2)[C@@H](O)[C@H]1O
5.1% | CC(C)N1C[C@H](O)C[C@H]1c1nnc2n1CCN(C(=O)Cn1c(=O)oc3ccccc31)C2
3.0%[70.6 µM] | COCCNc1ncc(-c2ccc(SC)cc2)c2c1OCC2
25.1µM* | CN(Cc1cccnc1)c1ccc2ncc(Nc3ccc(C(F)(F)F)cc3)n2n1
0.3% | Cc1cc(C[C@@H]2COC[C@@H]2NC(=O)CN2C(=O)NC(=O)C2(C)C)on1
2.0% | C[C@@H]1CN(C(=O)CNS(=O)(=O)c2cccs2)C[C@@]1(O)C1CC1
-2.4% | CCCNC(=O)N1CCCCC1c1nc(C2CC2)n[nH]1 (stereo not drawn)
-0.1% | Cc1nc2ccccc2n1CCC(=O)N1C[C@@H](C)[C@](O)(C(C)C)C1
4.1% | CCc1nc(C)ccc1OCC(=O)N1CCCn2nc(C(C)O)cc2C1 (stereo not drawn)
6.9% | CC(C)NC(=O)C1CC(=O)N(c2n[nH]c3cc(Br)ccc23)C1 (stereo not drawn)
8.0% | O=C1NCCOCCCN(C(=O)NCCc2ccccc2)[C@H]2CCCC[C@@H]12
-2.2% | CC(C)NC(=O)O[C@@H]1CC[C@]2(C)C(CC[C@@H](O)[C@H]2CC(=O)NCc2ccco2)[C@]1(C)CO (stereo partly drawn)
2.6% | CCc1nc(C)c(C(=O)N2C[C@@H](CN3CCOCC3)[C@@H](CO)C2)o1
0.7% | Cc1cc(C)cc(NC(=O)Cn2nc3n(c2=O)CCCC3)c1
-2.5% | COc1ccc(S(=O)(=O)N2C[C@@H]3C[C@H](C2)c2c(NC(=O)c4ccco4)ccc(=O)n2C3)cc1
-22.1% | CC1Oc2ccc(NC(=O)C3CCCC3)cc2CN(Cc2ccc(F)cc2)C1=O (stereo not drawn)
-10.1% | CN(C)c1cccc(C(=O)NC2CCCN(c3cc(-c4ccc(F)cc4)[nH]n3)C2)c1 (stereo not drawn)
5.9% | CCCc1cnc(C)nc1N1CCN(Cc2ccccc2F)C(CCO)C1 (stereo not drawn)

# Structures above that bear a hit mark in NPR1 antag:
NPR1 antag | SMILES
14.1µM* | COc1ccc(C)cc1C(=O)N1CCc2onc(-c3ccccc3F)c2C1
25.1µM* | CN(Cc1cccnc1)c1ccc2ncc(Nc3ccc(C(F)(F)F)cc3)n2n1

# Additional structures follow:
NPR1 antag | SMILES
-2.5% | Cc1cc(CN2CC[C@@H]3CN(S(C)(=O)=O)[C@@H]3C2)n(C)n1
-1.8%[70.6 µM] | Cc1ccc(CNC2(Cc3cc(CO)on3)COC2)o1
-7.5% | CCn1nccc1C(=O)N1CCC(N2CC(OCCOC)C23CCCCC3)CC1 (stereo not drawn)
-1.0% | O=C(Cc1ccsc1)N1CC(Oc2ccccc2-c2nc(-c3ccccc3)no2)C1
-17.2% | COc1ccc(-c2noc(-c3cccn3CC(=O)NC3CCCC3)n2)cc1F
5.6% | CNC(=O)c1cc[nH]c1C1CCCN(C(=O)CCc2nc3ccccc3[nH]2)C1 (stereo not drawn)
-18.3% | COc1ccc(NC(=O)O[C@@H]2CO[C@H]3[C@@H]2OC[C@@H]3NC(=S)Nc2cccc3ccccc23)cc1
-15.3% | Cc1ccc(-c2ncc(C(=O)Nc3cc(F)ccc3F)c(-c3ccncc3)n2)cc1
-2.6% | COC[C@@H]1CN(C(=O)CCc2cccc(OC)c2)C[C@H]1c1ccncc1
-11.1%[70.6 µM] | O=C(C1CCCC1)N1CCCN(c2nc3ncccc3o2)CC1
4.9% | O=C(c1nc2sccn2c1CN1CCCC(CO)C1)N1CCCCC1 (stereo not drawn)
-2.9% | Cc1ccnc(SCC(=O)N[C@H]2CCOC[C@H]2C2CCOCC2)n1
-19.3%[70.6 µM] | COc1ccc(CN[C@@H]2C=C[C@@H](c3c(C)nn(-c4ccccc4)c3C)C2)cc1
-10.8%[70.6 µM] | CCn1c2c(c(=O)n1Cc1ccccc1)CCN(C(=O)c1cccc(C#N)c1)C2
1.5% | CN1CCC(N(C(=O)NCCc2ccccc2)C2CCOCC2)CC1
-17.1% | COc1ccc(CN2CC3(CCN(S(=O)(=O)Cc4ccccc4F)CC3)C2=O)cc1
0.0% | O=C1NCCCCCCN(Cc2ccncc2)[C@@H]2CN(Cc3ccccn3)CC[C@@H]12
0.0% | CC(C)CC(=O)N1CCCC(c2nc(-c3cccnc3)no2)CCNC(=O)CC1 (stereo not drawn)
3.3% | Cn1cnc(S(=O)(=O)N2CCCN(C(=O)c3nccn3C)CCNC(=O)CC2c2ccccc2)c1 (stereo not drawn)
-5.8% | O=C(NC1CCCCC1)N[C@H]1CO[C@H]2[C@@H]1OC[C@@H]2n1nnnc1Oc1ccc(-n2ccnc2)cc1

# Arranged by the number under NPR1 antag (descending): some entries from above.
NPR1 antag | SMILES
4.9% | O=C(c1nc2sccn2c1CN1CCCC(CO)C1)N1CCCCC1 (stereo not drawn)
3.3% | Cn1cnc(S(=O)(=O)N2CCCN(C(=O)c3nccn3C)CCNC(=O)CC2c2ccccc2)c1 (stereo not drawn)
0.0% | O=C1NCCCCCCN(Cc2ccncc2)[C@@H]2CN(Cc3ccccn3)CC[C@@H]12
-17.1% | COc1ccc(CN2CC3(CCN(S(=O)(=O)Cc4ccccc4F)CC3)C2=O)cc1

# Continuation:
NPR1 antag | SMILES
-18.0% | COc1ccc(-c2noc(-c3cccn3CC(=O)Nc3ccccc3OC)n2)cc1F
6.5% | COc1cc(CNCCOc2cccnc2)ccc1OCC(O)CN1CCSCC1 (stereo not drawn)
-12.1% | O=C(c1ccc2cc[nH]c2c1)N1CCN(C(=O)c2nnn3c2COC(c2ccccc2)C3)CC1 (stereo not drawn)
0.0% | CC(=O)c1cc(C(=O)N2C[C@@H](C(=O)O)[C@H](c3ccccc3)C2)c(=O)[nH]c1C
? | COCCNC(=O)[C@H]1C[C@H](Oc2ccccc2)CN1C(=O)NC(C)C
2.0% | COCCN1C(=O)c2cccn2CC1CNC(=O)c1sc(C)nc1C (stereo not drawn)
2.6% | CN1CCN(C[C@@H]2CN(C(=O)c3ccc4ccccc4c3)C[C@@H]2CO)CC1
-0.5% | O=C(c1coc2ccccc12)N1CCN(Cc2cnc[nH]2)CC(O)C1 (stereo not drawn)
4.6% | CCC(NC1CCN(C(=O)c2ccccc2)CC1)c1ccnn1C (stereo not drawn)
-1.6%[70.6 µM] | CN(C)c1ccc2nnc(-c3cc(C(=O)N(C)c4ccccc4)ccn3)n2n1
0.6% | O=C(c1ccccc1OCC1CCCN(Cc2cccs2)C1)N1CCCC1 (stereo not drawn)
3.7% | CCCc1noc(-c2cccn3c(CNC(=O)Cc4ccc(Cl)cc4)nnc23)n1
1.6% | CCS(=O)(=O)N1C[C@@H]2CN(Cc3ncc[nH]3)C[C@]2(C(=O)O)C1
4.5% | COc1ccc(NC(=O)CCn2ccn3nc4c(c3c2=O)CCCC4)c(OC)c1
-1.8% | O=C1CCN(Cc2ccncc2)CCCC(C(=O)NCCCc2ccccc2)CCN1 (stereo not drawn)
-1.3% | CN(Cc1ccccc1)C(=O)C[C@@H]1O[C@H](CNS(=O)(=O)c2ccc(Cl)cc2)[C@@H](O)[C@H]1O
-22.3% | CC(C)Cc1ccc(S(=O)(=O)N2CCCC(Cn3cnc4cccnc43)C2)cc1 (stereo not drawn)
31.4%[activator][70.6 µM] | CC(=O)N1CCCN(c2cc(Cl)nc3ccnn23)CC1
-1.1% | Cc1nc(CCNC(=O)c2ccc(C(F)(F)F)cc2)no1
-10.6% | O=C(CCc1nnn2c1CN(C(=O)NCCc1ccccc1)CC2)N1CCCC1
-11.9% | O=C(NCc1ccc(F)cc1)C1c2ccccc2C(=O)N(Cc2ccccc2)C12CCCC2 (stereo not drawn)
0.6% | Cc1ccc(-c2nnc(C3CN(C(=O)c4cc(C)nn4C)CC34CCOCC4)o2)cc1 (stereo not drawn)
1.8% | Cc1ccc(C(=O)NCCn2c(C)cnc2C)s1
? | COc1ccc(C2Cn3nnc(-c4noc(-c5ccoc5)n4)c3CO2)cc1 (stereo not drawn)
6.3% | O=C(c1ccc(F)cc1)N1CCCCCC1c1nnc(-c2ccccc2)o1 (stereo not drawn)
25.1µM* | Cc1ccc2nc3n(c2c1)[C@@H](CNCc1ccc2c(c1)OCO2)COC3
1.5%[70.6 µM] | Cn1cc(-c2cn(C)c(=O)n3cc(CNc4ccccc4)nc23)cn1
-9.4% | CCc1[nH]c2ccc(CNC(=O)c3scc4c3OCCO4)cc2c1C
0.2%[70.6 µM] | CC1(C)C(=O)N(Cc2ccccc2)[C@H]2CN(Cc3ccccc3)C[C@H]2[S+]1(=O)[O-]
11.8%&6.6% | COc1ccc(-n2nc(C3CCN(Cc4ccccc4)CC3)[nH]c2=O)cc1
0.8% | CCC1c2nccn2CCCN1C(=O)CCn1nc(C)cc1C (stereo not drawn)
-7.0%[70.6 µM] | Cc1cc2cc(-c3c(C)noc3C)nc(Nc3ccc(F)cc3)c2o1
3.2% | CCO[C@H]1C[C@@H](O)C12CCN(C(=O)c1c(-c3ccccc3)ccnc1C)CC2
-22.9% | CN(CCc1ccccn1)[C@@H]1[C@H](O)[C@H](CO)O[C@@H]1CN(Cc1ccc(F)cc1)Cc1ccc(F)cc1
-4.5% | O=C(CCn1ccn2nc3c(c2c1=O)CCCC3)Nc1ccc(Cl)c(C(F)(F)F)c1
2.5% | O=C(Cc1cccc(F)c1)N1CCCC(Cc2nncn2-c2ccccc2)C1 (stereo not drawn)
0.0% | COCCOC1CCOC2(CCN(C(=O)NCc3ccc(C)cc3)CC2)C1 (stereo not drawn)
3.9% | C=CCn1cc(-c2c(-c3ccccc3)ncn2CCCC2CCOC2)cn1 (stereo not drawn)
-8.9%[70.6 µM] | CN1C[C@@H](NC(=O)c2ccccc2)C[C@H]1c1nc(-c2ccc(F)cc2)no1
-2.9% | Cc1occc1C(=O)N1C[C@@H](CO)[C@H](c2ccccn2)C1
? | c1ccc(CCCc2noc(-c3ccc(NCc4ccccn4)nc3)n2)cc1
-17.4% | CCOc1ccc(CC(=O)N2CCC[C@H]2c2nc(-c3ccccc3)no2)cc1OCC
0.0% | N#Cc1cccc(NC(=S)N[C@H]2CO[C@H]3[C@@H]2OC[C@@H]3n2nnnc2Oc2cccc(N3CCOCC3)c2)c1
0.0%[70.6 µM] | Cc1cccc(OC[C@H]2C[C@@H](NC(=O)c3cc(C)n(C)n3)[C@H](O)[C@@H]2O)n1
1.2% | Cc1cc(C)cc(CCC(=O)NC2(C#N)CCCCC2)c1
0.4%[70.6 µM] | O=C1Nc2ccc(-c3ccco3)cc2C(=O)N2CCN(C(=O)NC3CCCCC3)C[C@H]12
-1.1% | O=S(=O)(c1ccccc1)N1CCC(Cc2nncn2-c2ccccc2)CC1
-0.2% | CN1CCCC2(CC1)CCN(C(=O)c1ccc(C#CC(C)(C)O)cc1)CC2

# These rows are one share of the data; the hit share may differ from the screen's.
